# StopGo reporter: FMDV 2A StopGo reporter, luciferase signal. human cells with a luciferase reporter of 2A StopGo recoding; control for the full effect not named in the record. Potency, µM (titrated, usually from 57.9 µM), for the others: at the highest dose signal change, negative = less light. 1.2% of 410,000 active; active = well fitted falling curve with a large enough effect; inconclusive = small, poorly fitted or top-dose-only effect; inactive = no such curve, though single readings can be large or run the other way; tested in HEK293T cells; further: on the % scale 0 is the no-effect control and ±100 the full control effect; nearly all actives have a fitted effect of over 45% in size; luciferase light after 4 h
# MARV entry inh: blocks Marburg virus binding to or entry into cells; 1.8% of 300,000 active; AID 540276; Marburg virus pseudotyped entry inhibition, cell reporter; control for the full effect not named in the record; about a third of the inactives were read at about 46 µM; Potency, µM (titrated, usually from 37.8 µM), for the others: at the top dose activity change, negative = inhibition, hits mostly inhibitors; active = well fitted inhibition curve with a large enough effect; inconclusive = small, poorly fitted or top-dose-only effect, or effect the other way; inactive = flat fitted curve, though single readings scatter; tested in HEK293 cells; about a fifth of its hits are not listed in these tables; further: on the % scale 0 is the no-effect control and ±100 the full control effect; luciferase read-out
# RE007 growth inh: less growth of the S. pombe RE007 Vpr strain. AID 651644. S. pombe RE007 Vpr strain, BacTiter-Glo ATP luminescence, 24 h; control for the full effect not named in the record. 0.21% of 360,000 active. Potency, µM (doses to about 92.2 µM), without a hit: at the top dose activity change, negative = less growth; active = well fitted falling curve with a large enough effect; inconclusive = small, poorly fitted or top-dose-only effect; inactive = no such curve, though single readings can be large or run the other way;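 further: on the % scale 0 is the no-effect control and ±100 the full control effect; nearly all actives have a fitted effect of over 50% in size; the assay follows cell death caused by Vpr and the record does not say whether a fall means rescue or toxicity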
#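 Fission yeast strain RE007, carrying one chromosomally integrated HIV-1 vpr copy, was seeded at OD 0.01 in PMG+AL medium with 23 nL pinned compound. After 24 h at 30 °C and 99% humidity, viability was read by BacTiter-Glo luminescence.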
# SARS PLP yeast: inhibitors of SARS-CoV papain-like protease in yeast | S. cerevisiae expressing SARS-CoV PLpro, growth rescue; control for the full effect not named in the record | Potency, µM (highest dose often 32.9 µM), for the others: at the top dose activity, positive = growth rescue | 0.19% of 330,000 active | AID 485353; further: 0% is about no effect; nearly all actives have a fitted effect of over 55% in size; growth read by luminescence after 48 h
# Cruzain inh Det: inhibitors of Trypanosoma cruzi cruzain with detergent. P25779. purified cruzain, Z-FR-AMC fluorescence, 0.01% Triton. Potency, µM, without a hit: max response, negative = inhibition, most hits filed as inhibitors. 0.43% of 200,000 active. AID 1478; active means well fitted curve in the direction sought with a large enough effect; inconclusive means small, poorly fitted or top-dose-only effect, or another doubt; inactive means no such curve, though single readings can be large; an effect the other way counts as inactive or inconclusive;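 further: plate controls were neutral wells for no effect and buffer without enzyme for full effect; nearly all actives have a fitted effect of over 40% in size; top concentration of the series not given in the record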
# Target sequence (P25779 123-467 limits assumed): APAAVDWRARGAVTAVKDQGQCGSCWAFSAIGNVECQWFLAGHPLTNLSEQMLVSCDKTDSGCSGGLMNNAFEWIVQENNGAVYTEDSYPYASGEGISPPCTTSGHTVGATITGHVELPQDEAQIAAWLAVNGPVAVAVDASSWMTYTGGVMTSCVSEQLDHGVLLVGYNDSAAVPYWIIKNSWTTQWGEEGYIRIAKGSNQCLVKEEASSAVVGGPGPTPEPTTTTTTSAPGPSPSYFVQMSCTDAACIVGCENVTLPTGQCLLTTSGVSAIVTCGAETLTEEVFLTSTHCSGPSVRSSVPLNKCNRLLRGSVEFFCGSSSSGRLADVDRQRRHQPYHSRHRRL
#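 In this qHTS format, compounds are incubated with 1.5 nM cruzain for 15 min at room temperature before 2 uM Z-FR-AMC is added. Release of AMC is followed at 360/450 nm, and progress is taken as the 60 s fluorescence difference.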
# NS1 function inh: inhibitors of influenza NS1 protein function; S. cerevisiae slowed by influenza A NS1, growth recovery by OD600; Potency, µM (highest dose often 46.1 µM), for the others: at the highest dose activity, positive = more growth; 0.4% of 270,000 active; further: actives are rising curves; nearly all actives have a fitted effect of over 50% in size
#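 S. cerevisiae expressing influenza A NS1, grown in glucose, washed, then diluted 1:100 into pH 6.0 -URA galactose medium with 23 nl compound. Growth recovery read as OD600; NS1-free strain serves as control.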
# LASV entry inh: inhibitors of Lassa virus binding or cell entry. Lassa virus pseudotype entry inhibition, cell reporter; control for the full effect not named in the record. Potency, µM (series often up to 37.9 µM), without a hit: top-dose activity change, negative = inhibition, usual class: inhibitors. 1.2% of 300,000 active. AID 540256; active means well fitted inhibition curve with a large enough effect; inconclusive means small, poorly fitted or top-dose-only effect, or effect the other way; inactive means flat fitted curve, though single readings scatter; tested in HEK293 cells; further: on the % scale 0 is the no-effect control and ±100 the full control effect; nearly all actives have a fitted effect of over 50% in size; luciferase read-out
# Cruzain inh noDet: cruzain (T. cruzi) inhibition without detergent. Potency, µM, for the others: max response, negative = inhibition, usual class: inhibitors. AID 1476. 2.3% of 200,000 active. P25779. purified cruzain, Z-FR-AMC fluorescence, no detergent; active means well fitted curve in the direction sought with a large enough effect; inconclusive means small, poorly fitted or top-dose-only effect, or another doubt; inactive means no such curve, though single readings can be large; an effect the other way counts as inactive or inconclusive;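 further: plate controls were enzyme without inhibitor for no effect and buffer without enzyme for full effect; nearly all actives have a fitted effect of over 40% in size; top concentration of the series not given in the record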
#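 Purified cruzain at 1.5 nM, pre-incubated 15 min with compound at room temperature in 100 mM sodium acetate pH 5.5, 5 mM DTT, 0.00005% Triton X-100. Reaction started with 2 uM Z-FR-AMC; AMC fluorescence increase over 60 s gives rate.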
# The depositor's hits bear a star; u = inconclusive; x = no result given; & = joins results of further samples; [ ] = another dose, or the depositor's remark. Unless noted, the call rests on the fitted dose curve; in most records, active means well fitted rising curve with a large enough effect; inconclusive means small, poorly fitted or top-dose-only effect; inactive means no such curve, though single readings can be large or run the other way. Potency means the concentration at half of the fitted maximal effect.
SMILES,StopGo reporter,MARV entry inh,RE007 growth inh,SARS PLP yeast,Cruzain inh Det,NS1 function inh,LASV entry inh,Cruzain inh noDet
O=C(COC(=O)CNS(=O)(=O)c1ccc(Br)cc1Cl)Nc1ccc(N2CCOCC2)cc1,-15%,-17%,15%,-7%,x,x,9%,x
Cc1ccc(NC(=O)N2CCN(c3nnc(C)c4c(C)n(-c5ccccc5)nc34)CC2)c(Cl)c1,-19%,x,x,x,-1.0%,x,13%[46.1 µM],-6%
Cc1ccc(C(=O)O/N=C(\c2ccccc2)c2cccnc2)cc1,-9%,7%,4%,-9%,-4.5%,-34%,-2%,10%
CC(C)CCNC(=O)CSc1nc2ccccc2nc1Cc1ccc(Cl)cc1,0%,x,x,x,3.5%,x,12%[46.1 µM],-10%
NC(=O)c1c(NC(=O)CCCC(=O)O)sc2c1CCCCCC2,0%,2%,-4%,10%,-3.7%,11%,u,-6%
COc1ccc(N2CC(C(=O)Nc3ccccc3N3CCCC3)CC2=O)c(OC)c1 (stereo unspecified),-11%,u,3%,-1%,x,x,0%,x
O=P(O)(CCc1ccncc1)CN1CCCCC1,x,2%,16%,6%,1.8%,5%,8%,-3%
COc1cc2c(cc1/C=C1/NC(=O)N(c3ccccc3)C1=O)OCO2,31%[activator],15%,-1%,-9%,-5.5%,19%,16%,-28%
O=c1c2ccccc2nc(-c2ccco2)n1/N=C/c1ccco1,-2%,-15%,-6%,-2%,2.5%,-12%,0%,-12%
CCOc1ccc(NC(=O)COC(=O)c2ccc3c(c2)C(=O)N(CCc2ccccc2)C3=O)cc1,31%[activator],6%,1%,5%,-2.6%,-5%,2%,u
CN(C)CCCN(C(=O)c1ccc2c(c1)CCCC2)c1nc2ccc(F)cc2s1,-6%,u,34%,-34%,-9.4%,-9%,16µM*,2%
CCCCn1c(N)c(N(CCC(C)C)C(=O)C2CCN(C(=O)c3ccccc3C)CC2)c(=O)[nH]c1=O,6%,3%,-6%,4%,x,x,1%[46.1 µM],x
O=C(NCCO)C1(c2ccc(Cl)cc2)CCCC1,0%,-3%,21%,1%,1.7%,-1%,-2%,8%
COc1ccc2oc(-c3ccccc3)c(C(=O)N3CCOCC3)c2c1,0%,5%,-15%,-3%,-5.6%,u,2%,28%
COc1cc(C)nc(N2CCCC(C(=O)Nc3cccc(Cl)c3C)C2)n1 (stereo unspecified),-17%,0%,-2%,u,8.8%,-8%,-14%,17%
Cc1cc(Nc2ccc(Br)cc2F)n2ncnc2n1,-7%,11%,2%,-16%,1.5%,-9%,-3%,-5%
CCOC(=O)c1cc(NC(=O)c2ccc(Cl)cc2)c(=O)n2c1oc1ccc(Cl)cc12,x,-19%,-11%,3%,4.9%,3%,-3%,-11%
CCCCN(CC)CCNC(=O)c1ccc2c(Cl)c3c(nc2c1)CCC3,-12%,u,10%,1%,x,2%,u,x
O=C(COC(=O)Cn1cnc2ccccc21)NCCCc1ccccc1,27%,-2%[46.1 µM],7%,2%,x,-3%,11%[46.1 µM],x
CCOC(=O)N1CCN(C(=O)C2CC(=O)N(c3ccc(OC)cc3)C2c2ccc(OC)cc2)CC1 (stereo unspecified),-17%,u,3%,-1%,-1.2%,-3%,u,u
O=C(Nc1ccncc1)C1(c2ccccc2)CCCC1,x,-38%,-17%,-3%,4.8%,0%,-2%,3%
Cc1cccc(NC(=O)COc2coc(CN3CCN(c4ccccc4)CC3)cc2=O)c1C,u,-23%,3%,5%,x,x,u,x
COc1cccc(N(CC(=O)Nc2cccc(F)c2)S(C)(=O)=O)c1,-14%,-1%,-6%,0%,1.7%,0%,1%,5%
CCOc1cccc(-c2c(C(=O)N/N=C(\C)c3ccncc3)nnn2-c2nonc2N)c1,-12%,-19%[46.1 µM],2%,-1%,x,6%,11%[46.1 µM],x
CCCN1C(=O)c2cc(C(=O)Nc3ccccc3C)ccc2C1Nc1ccccc1C (stereo unspecified),-20%,u,6%,1%,x,6%,-10%,x
CCn1c(CNC(=O)c2cccs2)nnc1SCC(=O)Nc1ccc(Cl)cc1,25%,-27%,19%,1%,-2.2%,3%,-7%,u
COc1ccccc1NC(=O)CN1C(=O)NC2(CCCCCCC2)C1=O,-12%,1%[46.1 µM],2%,0%,x,-3%,u,x
Cc1nn(-c2ccccc2)nc1CNC(=O)C1CC1,20%,8%[46.1 µM],19%,0%,x,-4%,24%,x
Cc1cccc(NC(=O)CSc2nnc(Cn3cnc4ccccc43)o2)c1,x,u,9%,18µM*,2.1%,4%,22%,27%
COCCn1cc(C(=O)NCc2cccs2)c2c3ccccc3n(C)c2c1=O,-1%,-22%,1%,4%,2.3%,u,-5%,u
COc1ccc2c(c1)O/C(=C\c1ccccc1C)C2=O,30%[activator],0%[46.1 µM],-25%,-1%,x,-4%,-28%[46.1 µM],x
CCOC(=O)C1CCCN(C(=O)CN2CCN(Cc3ccc(Cl)cc3)C2=O)C1 (stereo unspecified),u,11%[46.1 µM],18%,7%,1.0%,-14%,-6%,7%
O=c1[nH]c(O)c(C=NC2CCCCC2)c(=O)[nH]1,5%,4%[46.1 µM],4%,1%,x,-3%,3%[46.1 µM],x
Cc1ccc(N(Cc2ccc(C(=O)NCC3CCCO3)cc2)S(C)(=O)=O)cc1C (stereo unspecified),-11%,-5%[46.1 µM],-6%,0%,x,-7%,u,x
Cc1ccc(NC(=O)CN2C(=O)CN=C(c3ccccc3)c3ccccc32)cc1,20%,x,x,x,-5.0%,x,u,10%
Cc1cccc(-c2nc(NCCCN3CCOCC3)c3ccccc3n2)c1,u,-10%,-5%,-8%,0.3%,11%,16%,5%
O=C(Nc1ccc2c(c1)OCO2)c1cc(-c2cccc(O)c2)on1,64%[activator],u,-15%,-12%,x,-3%,u,x
COc1ccc(-c2noc(C3CCCN(C(=O)c4ccccc4)C3)n2)cc1 (stereo unspecified),7%,x,7%,-2%,x,-13%,x,x
O=C(NNC(=O)c1ccc2ccccc2c1)c1cccc(Cl)c1,20%,15%[46.1 µM],-2%,x,x,x,4%[46.1 µM],x
O=C(C1CCC(Cn2c(=O)[nH]c3ccccc3c2=O)CC1)N1CCN(c2ccccc2)CC1 (stereo unspecified),-18%,11%,-1%,-17%,-1.1%,-55%,-13%,2%
CSc1ccc(/C=C(\NC(=O)c2ccc(C)cc2)C(=O)Nc2cccc(C)c2)cc1,-15%,-5%,15%,15%,-0.2%,4%,-8%,7.9µM*
CC(=O)c1cccc(NC(=O)CCNS(=O)(=O)c2cccc3nonc23)c1,1%,1%[46.1 µM],0%,-2%,x,x,-9%,x
Cc1cc(C)c(S(=O)(=O)c2ccccc2C(C)C)c(=O)[nH]1,11%,u,-1%,0%,x,-1%,u,x
Cc1ccc(Cn2ccc(=O)c(OCc3ccccc3)c2C)cc1,34%[activator],2%,2%,9%,3.7%,1%,26%,-11%
Cc1ccc2c(CC(=O)Nc3ccc(S(=O)(=O)Nc4nc(C)cc(C)n4)cc3)coc2c1,66%[activator],2%[46.1 µM],x,x,-12%,x,-12%[46.1 µM],16%
CS(=O)(=O)c1ccc2nc(NC(=O)Nc3ccc(Cl)c(Cl)c3)sc2c1,-19%,-12%,0%,15%,-7.7%,u,-2%,10µM*
CC1CC(C)CN(CCCNC(=O)Cn2ncc3c([nH]c4ccccc43)c2=O)C1 (stereo unspecified),-7%,x,-9%,3%,x,-3%,x,x
CCOc1ccc(CNC(=O)C2CCN(c3nnc(-n4c(C)ccc4C)s3)CC2)cc1,u,2%[46.1 µM],x,x,-5.4%,x,-9%[46.1 µM],2%
CN(CC(=O)Nc1sccc1C(N)=O)S(=O)(=O)c1ccc(Cl)cc1,-20%,3%,-8%,6%,x,x,u,x
O=S(=O)(c1ccc(-n2cnnn2)cc1)N(C1CCCCC1)C1CCCCC1,0%,-3%,-8%,5%,1.0%,-20%,13%,5%
COc1ccc(N2C(=S)N=C(Nc3cccc(C)c3)C23CCCCC3)cc1,-19%,-11%,16%,10%,-1.7%,8%,-1%,-8%
CCOC(=O)N1CCN(C(=O)COC(=O)CNC(=O)c2ccc(OCC)c(OCC)c2)CC1,-17%,11%[46.1 µM],-5%,-1%,x,x,-7%,x
COc1ccc(-c2cc(=O)c3cc(OC)ccc3o2)cc1,34%&-9%[activator],x,1%,-2%,1.0%,-6%,x,1%
CCOc1ccc(C(C)NC(=O)C2CCN(S(=O)(=O)c3ccc(OC)cc3)CC2)cc1OCC (stereo unspecified),-25%,-19%,2%,x,x,x,-6%,x
CN(C)c1ccc(C(=O)OCC(=O)NC2CCCCC2)cc1,1%,-22%,5%,6%,1.4%,-36%,u,-12%
COC(=O)/C(=C\C(=O)c1ccc([N+](=O)[O-])cc1)Nc1ccc(OC)cc1,3%,7%[46.1 µM],-17%,0%,x,4%,5%,x
O=C1N=C(N2CCCC2)CN1c1ccccc1,19%,-5%,-2%,2%,-1.2%,2%,u,2%
CCOC(=O)c1c(C)oc2nc(C)nc(N3CCN(c4ccccc4F)CC3)c12,u,x,x,x,0.4%,x,14%[46.1 µM],-10%
COc1ccccc1-c1cc(C(=O)N2CCc3ccccc3C2)c2ccccc2n1,x,-1%,x,-6%,-6.9%,-5%,x,u
CCOCc1cn(CC(=O)c2ccc([N+](=O)[O-])cc2)c(C)nc1=N,-31%,-6%,140%,3%,0.9%,1%,19%,5%
# Next part:
SMILES,StopGo reporter,MARV entry inh,RE007 growth inh,SARS PLP yeast,Cruzain inh Det,NS1 function inh,LASV entry inh,Cruzain inh noDet
CC(C)n1c(N2CCN(S(=O)(=O)c3cccc([N+](=O)[O-])c3)CC2)nc2ccccc21,-11%,u,-22%,12%,x,-37%,u,x
COc1ccc(CNC(=O)CN(Cc2ccco2)C(=O)CCC(=O)Nc2ccccn2)cc1,0%,-5%[46.1 µM],1%,2%,x,21%,-14%,x
O=C(Nc1nccs1)C1CC(=O)N(c2ccc(F)cc2)C1 (stereo unspecified),3%,-2%[46.1 µM],2%,2%,x,0%,24%,x
N#C/C(=C\N1CCOCC1)S(=O)(=O)c1ccc(Cl)cc1,0%,-26%,-12%,4%,x,6%,u,x

# Compound activity deposited in PubChem by National Center for Advancing Translational Sciences (NCATS).

# Hits appear at their usual frequency; 4.7% or so of the library scored in one or more.
